D2 ag: Beta-Arrestin HTS for Positive Allosteric Modulators of the Human D2 Dopamine Receptor: Agonists; D(2) dopamine receptor (Homo sapiens), P14416; DiscoveRx PathHunter D2 beta-arrestin, luminescence, 90 min; 100% = 57 uM dopamine signal; activation, % (test concentration not listed); actives 0.084% (n = 360,000); in the data active = activation above about 40%; inconclusive = about 15% to 40%; inactive = below about 15%; note: compound concentration not given in the record; the text of the record calls up to 30% inactive
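Agonist mode: compounds alone added to overnight-plated D2 PathHunter cells for 90 min at 37 C, with 57 uM final dopamine (EC100) defining full response. Beta-arrestin recruitment detected by chemiluminescent reagent, read after 1 h at ambient temperature.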
TRPV1 potentiator: HTS Assay for Compounds that Act as Potentiators of the Vanilloid Receptor 1; actives 0.02% (n = 320,000); potentiation, % at 8.33 µM; TRPV1-expressing cells, Fluo-8 calcium influx, capsaicin EC20 potentiation; host cell line not named in the record; control for the full effect not named in the record; AID 540277, 2011; Transient receptor potential cation channel subfamily V member 1 (Homo sapiens), Q8NER1; active means potentiation above 80%; inconclusive means 30% to 80%; inactive means below 30%; note: 0% is about no effect
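Fluo-8 calcium influx in TRPV1-expressing cells, kinetic read (ex 480/em 520 nm). Compound added and read 3 min for agonist activity, followed by capsaicin at EC20 final and 2 min further read for enhancement.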
Sfp inh: qHTS Assay for Inhibitors of Bacillus subtilis Sfp phosphopantetheinyl transferase (PPTase) | Biochemical Sfp PPTase activity, qHTS | Potency, µM, without a hit: max response, negative = inhibition, most hits filed as inhibitors | actives 3.5% (n = 310,000) | AID 1490, 2009 | 4'-phosphopantetheinyl transferase ffp (Bacillus subtilis), Q9F4F7; active = well fitted inhibition curve with a large enough effect; inconclusive = small, poorly fitted or top-dose-only effect, or another doubt; inactive = no such curve, though single readings can be large or run the other way;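 note: the enzyme is Sfp with the accession as filed and its product quenches rhodamine fluorescence; potency is the fitted concentration of half-maximal effect; 0% = enzyme reaction without inhibitor and -100% = no enzyme wells; top concentration of the series not given in the record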
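Compounds were incubated with enzyme (final 15 nM) for 15 min at room temperature before substrate addition started the reaction. Fluorescence at 525 nm excitation, 598 nm emission was recorded immediately and after 30 minutes.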
PINK1 modulator: A Quantitative High throughput Screen to Identify Chemical Modulators of PINK1 Expression; PINK1 immunofluorescence, high-content cytometry, 24 h; Potency, µM (highest dose often 76.6 µM), inactives show top-dose activation (PINK1 increase), most hits filed as activators; actives 0.2% (n = 410,000); active = well fitted activation curve with a large enough effect; inconclusive = small, poorly fitted or top-dose-only effect; inactive = flat fitted curve, though single readings scatter; cell line not stated here;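 note: potency is the fitted concentration of half-maximal effect; % of control where 0% means no effect; nearly all actives have a fitted effect of over 65% in size; a mitochondrial uncoupler was the plate control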
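Stable cell line treated 24 h with compounds at 5 concentrations (CCCP controls), then fixed and immunostained for PINK1 plus nuclear and cell stains; PINK1 immunofluorescence quantified by laser-scanning microplate cytometry.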
CtBP-E1A blk: qHTS Assay for Inhibitors of the CtBP/E1A Interaction; actives 0.49% (n = 340,000); activity change, % (no concentration beside the values); AlphaScreen GST-E1A/His-CtBP binding, 1536-well; hits give low values; control for the full effect not named in the record; in the data active means activity change below about -65%; inconclusive means about -30% to -65%; inactive means above about -30%; note: % is set by controls: 0 for no effect and ±100 for the full control effect; compound concentration not given in the record
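AlphaScreen with 125 nM GST-E1A and 125 nM His-CtBP (5X stocks) in Tris pH 8.0, 300 mM NaCl, BSA, Tween 20, TCEP. Compounds preincubated 2 h at 37 deg C, then glutathione donor/nickel acceptor beads added for 1 h at 37 deg C in dark.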
Six1-Eya2 blk: qHTS Assay for Inhibitors of the Six1/Eya2 Interaction; Homeobox protein SIX1 (Homo sapiens) + Protein phosphatase EYA2 (Homo sapiens), …; AlphaScreen GST-Six1/His-Eya2 binding, biochemical; hits give low values; control for the full effect not named in the record; activity change, % (concentration not given with the values); actives 0.56% (n = 360,000); AID 651725, 2012; in the data active = activity change below about -65%; inconclusive = about -30% to -65%; inactive = above about -30%; note: % is set by controls: 0 for no effect and ±100 for the full control effect
Target sequence (O00167 whole entry, looked up): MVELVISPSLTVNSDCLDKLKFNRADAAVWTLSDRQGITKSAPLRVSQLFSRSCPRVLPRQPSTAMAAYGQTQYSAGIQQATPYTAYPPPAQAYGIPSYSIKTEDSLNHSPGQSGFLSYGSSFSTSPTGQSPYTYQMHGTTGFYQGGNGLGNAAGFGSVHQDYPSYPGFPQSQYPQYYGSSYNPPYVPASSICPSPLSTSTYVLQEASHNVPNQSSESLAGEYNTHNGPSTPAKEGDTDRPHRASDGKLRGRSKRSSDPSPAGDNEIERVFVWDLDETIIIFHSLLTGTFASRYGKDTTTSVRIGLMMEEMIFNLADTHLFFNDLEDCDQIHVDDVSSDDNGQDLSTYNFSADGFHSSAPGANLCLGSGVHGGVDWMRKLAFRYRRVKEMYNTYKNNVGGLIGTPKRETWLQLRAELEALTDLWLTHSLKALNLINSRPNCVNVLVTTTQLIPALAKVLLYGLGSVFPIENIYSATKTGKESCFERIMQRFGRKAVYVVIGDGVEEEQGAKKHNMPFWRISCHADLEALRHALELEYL
Target sequence (Q15475 whole entry, looked up): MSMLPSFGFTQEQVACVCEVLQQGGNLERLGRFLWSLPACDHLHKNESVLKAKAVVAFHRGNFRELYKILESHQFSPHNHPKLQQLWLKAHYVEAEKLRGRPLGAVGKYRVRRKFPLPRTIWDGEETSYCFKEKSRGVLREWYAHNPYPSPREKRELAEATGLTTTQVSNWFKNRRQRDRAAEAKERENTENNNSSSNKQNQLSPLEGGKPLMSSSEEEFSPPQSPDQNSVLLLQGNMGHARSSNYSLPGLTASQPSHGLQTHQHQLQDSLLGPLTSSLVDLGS
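AlphaScreen with GST-Six1 and His-Eya2 (5X mix: 250 nM and 500 nM), glutathione donor and nickel acceptor beads; buffer 50 mM Tris pH 8.0, 300 mM NaCl, 1 mM TCEP; 1 h at 37 C in the dark.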
D2 potentiator: Beta-Arrestin HTS for Positive Allosteric Modulators of the Human D2 Dopamine Receptor: Potentiators; D(2) dopamine receptor (Homo sapiens), P14416; DiscoveRx D2 beta-arrestin cells, luminescence, 90 min; 100% = 57 uM dopamine signal; potentiation, % (concentration not given with the values); actives 0.23% (n = 360,000); AID 624464, 2012; active = potentiation of 50% or more; inconclusive = 30% to 50%; inactive = 30% or less;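 note: compound concentration not given in the record; tested on top of an EC20 dose of dopamine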
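D2 cells co-treated with compound plus 50 nM dopamine (EC20) for 90 min at 37 deg C to detect potentiation. Beta-arrestin recruitment was read as enzyme-fragment luminescence after 1 h at ambient temperature. Full response was set by 57 uM dopamine.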
Starred values were filed as active, the others as inactive; ? = inconclusive; . = no result given; & = joins results of further samples; ! = a repeat was not active; [ ] = dose if it differs, or a comment. These rows are one share of the data, so the mix of outcomes need not match the whole.

nr	Structure	D2 ag	TRPV1 potentiator	Sfp inh	PINK1 modulator	CtBP-E1A blk	Six1-Eya2 blk	D2 potentiator
1	OCC12COC3c4ccccc4C(OC1)N32 (configuration not stated)	-1.3	-0.5	-2.6%	4.8%[38.3 µM]	5.3	4.2	.
2	CCc1ccc(NC(=O)CN2CC(c3ccccc3)CC2=O)cc1 (configuration not stated)	-4.9	-11.6	9.9%	0.7%	-0.1	1.0	-13.0
3	CC(c1ccccc1)n1cncc1C(=O)O (configuration not stated)	-3.8	-6.1	-7.9%	0.3%	-2.2	10.4	-4.5
4	CCN(C(=O)COC(=O)c1cn(C)c2ccccc12)c1ccc(F)cc1	-2.3	-14.7	.	0.7%	.	3.6	-4.0
5	O=C(Nc1ccncc1)c1cccn(Cc2ccccc2)c1=O	9.3	-1.2	18.0%	1.5%	0.8	-3.0	0.3
6	CC1(C)C(C(=O)N2CCN(C(=O)c3ccccc3)CC2)C1(C)C	-2.6	-6.6	25.2%	-2.2%	21.5	4.1	-2.1
7	CCN(CC)CCCN=Cc1c(O)n(CCc2ccc(OC)c(OC)c2)c(=O)[nH]c1=O	-1.9	1.3	7.6%	0.6%	0.0	0.5	-5.7
8	CC1=C2CCC3C(CCC4=CC(=O)CCC43C)C2CC1 (configuration not stated)	2.9	.	.	-0.6%	0.2	9.9	-2.9
9	CC(CCc1ccccc1)NC(C)C(O)c1ccc(O)cc1 (configuration not stated)	-4.2	4.2	18.1%&30.1%&-2.9%	0.9%	-4.7	1.0	-14.3
10	C=CCNC(=S)Nc1ccc(OC(=O)Nc2ccc(Cl)c(Cl)c2)cc1	4.4	4.5	-9.9%	3.2%	.	-1.9	-15.4
11	CCN(CC)C1=NC(=[N+](CC)CC)c2ccccc21	0.6	2.2	3.9%	3.9%[38.3 µM]	0.3	0.8	-9.3
12	O=C(O)C1C2c3ccccc3C(O)C1(C(=O)O)c1ccccc12 (configuration not stated)	-4.9	.	.	-3.3%	17.7	0.5	-2.6
13	C=Cn1ccnc1P(=S)(c1c(C)nn(-c2ccccc2)c1C)c1nccn1C=C	-0.4	1.1	-2.6%	2.7%[38.3 µM]	14.1	-3.8	-20.3
14	NC(=O)CSP(=O)(c1ccccc1)c1ccccc1	-2.0	0.3	15.8µM*	5.2%[38.3 µM]	5.7	1.2	0.6
15	Cc1onc(-c2c(Cl)cccc2Cl)c1/C(N)=N/OC(=O)N(C)C	0.8	2.9	8.7%	-0.7%	-0.7	-1.2	-1.9
16	CC(C)(C)n1nnnc1C(c1ccccc1)N1CCC2(CC1)C(=O)NCN2c1ccccc1 (configuration not stated)	-2.3	.	.	0.6%	-3.9	-13.3	-11.2
17	O=C(O)c1ccc(/C=C/c2nc3ccccc3c(=O)n2-c2ccc(Br)cc2)cc1	-0.3	12.2	8.3%	-0.4%	-2.3	0.4	7.2
18	CCOP(=O)(OCC)C(NC(=O)c1cccc2ccccc12)C(Cl)(Cl)Cl (configuration not stated)	-4.6	3.4	-2.7%	-3.1%	-14.9	-1.0	-3.4
19	CCOC(=O)C1(c2ccccc2)Oc2ccccc2C(c2ccc(OC)cc2)=C1C(=O)OC (configuration not stated)	0.2	.	-7.9%	-0.9%	-8.5	-10.2	.
20	O=C1NC(=O)N(Cc2ccco2)C(=O)/C1=C\c1ccc(-c2ccc(F)cc2)o1	0.9	-11.9	31.6µM*	-2.2%	-0.8	?	-2.0
21	COC(=O)C1=C(c2cccc(OC)c2OC)C[C@@H]2CC[C@H]1N2C(=O)NCC1CC1	-4.4	.	.	2.1%	12.1	2.3	-3.5
22	CN1CCN(CCOC2c3ccccc3CSc3ccc(Cl)cc32)CC1 (configuration not stated)	0.8	-1.4	-13.4%	-4.2%	1.1	-10.6	-17.1
23	COc1cc(O)cc2c1cc([N+](=O)[O-])c1c(C(=O)O)cc3c(c12)OCO3	-3.9	.	.	1.2%	-22.9	-24.3	-21.2
24	CCc1ccc(NC(=O)C(C)OC(=O)c2c(C)nn(Cc3ccccc3)c2Cl)cc1 (configuration not stated)	-4.4	8.0	10.2%	4.2%	-13.3	7.7	-7.2
25	COC(=O)C1=C(c2ccc(F)cc2OCc2ccccc2)C[C@@H]2CC[C@H]1N2C(=O)NCC1CC1	0.4	-24.4	.	9.6%	-4.2	-7.0	-12.5
26	O=C(c1cccnc1)C1CCCN(Cc2nc(-c3cnccn3)no2)C1 (configuration not stated)	-2.6	-15.7	7.8%	2.5%	10.2	0.4	-5.5
27	COc1ccccc1N1CCN(Cc2c(F)cccc2F)CC1	-1.4	-1.8	8.8%	5.5%[38.3 µM]	-0.5	2.0	-17.1
28	COC(=O)C1=C(c2ccc(S(C)(=O)=O)cc2)C[C@@H]2CC[C@H]1N2C(=O)NC1CCCCC1	-4.8	.	.	-0.3%	1.8	0.4	-3.7
29	CCCOC(=O)COc1cc(C)cc2oc(=O)c3c(c12)CCC3	1.6	-19.9	3.2%	3.2%[38.3 µM]	3.5	4.3	-2.9
30	O=C(c1cc2cc(Cl)ccc2[nH]1)N1CCC2(CC1)OCCO2	-4.8	-41.3	4.6%	-1.7%	.	0.4	-10.4
31	CCOC(=O)C1=C(N)OC2=C(C(=O)CCC2)C12C(=O)Nc1ccccc12 (configuration not stated)	-0.3	-9.4	4.2%	.	-9.2	-1.4	0.4
32	Cc1ccc(-n2c(C)nc3cc(Cl)ccc3c2=O)nc1	-0.3	-9.6	13.9%	1.8%	-23.4	-3.1	-6.1
33	Oc1ccc2c3c1O[C@H]1c4oc5ccccc5c4C[C@@]4(O)[C@@H](C2)N(CC2CC2)CC[C@]314	-2.0	-12.2	-4.9%	1.5%	-3.4	-0.7	-0.8
34	CCCCCOc1ccc(C)cc1CN(CCCl)CCCl	3.5	-9.2	?	11.1%	0.0	24.6	-19.3
35	CC=C(C)C1(CCC)C(=O)NC(=S)NC1=O	1.8	.	.	-0.9%	10.1	6.7	-12.0
36	Cc1cccc(N/N=C/c2c(O)[nH]c(=S)[nH]c2=O)c1	-5.3	.	.	1.7%	-9.0	-9.4	-10.2
37	O=C(COc1ccccc1)NCCc1cnc[nH]1	0.5	5.9	13.3%	-0.9%	-1.4	0.8	-2.6
38	O=C1CC(=O)N(c2cccc(Br)c2)C(=O)N1	2.5	20.5	-7.3%	3.2%	-0.6	-0.5	-1.5
39	CC(=NCc1ccc2c(c1)OCO2)c1c(O)n(Cc2ccccc2)c(=O)[nH]c1=O	-0.2	-1.9	13.7%	7.5%	-2.5	-20.2	7.5
40	CSc1ccc(C(=O)C2CCCN(Cc3cc4ccccc4[nH]3)C2)cc1 (configuration not stated)	-1.3	0.9	-12.1%	6.4%	0.0	-16.4	-15.3
41	CCn1c(O)c(C(c2ccccn2)c2c(O)n(CC)c(=S)[nH]c2=O)c(=O)[nH]c1=S	-2.8	.	50.1µM*	?	-12.9	-8.2	-1.8
42	Cc1cccc(C)c1-n1nnnc1C(CCc1ccccc1)N1CCC2(CC1)C(=O)NCN2c1ccccc1 (configuration not stated)	-5.4	.	.	4.1%	2.5	0.0	-16.2
43	CC(C)CC(=O)NC(Oc1ccc(Cl)cc1)C(Cl)(Cl)Cl (configuration not stated)	0.9	-1.4	16.8%	0.6%	16.6	16.7	-19.0
44	Cc1nn(CC(C)C)c(Cl)c1C(=O)NC1CCCC1	-2.1	.	.	0.9%	-0.1	5.1	-8.1
45	Clc1ccc(COC(Cn2ccnc2)c2ccc(Cl)cc2Cl)c(Cl)c1 (configuration not stated)	5.4&-1.7	-13.6	35.5µM*!	0.9%&1.5%	-5.8&-18.5	4.0&-17.5	-18.6&-10.7
46	NNC(=O)c1ccc(Cl)cc1	-4.6	-11.0	-18.4%	1.0%	7.8	-4.6	-30.6
47	Cc1ccc(N2C(=O)NC(=O)C(CCc3ccccn3)(Cc3ccc(F)cc3)C2=O)cc1 (configuration not stated)	-0.6	-7.1	15.1%	0.5%	-12.7	14.6	-6.7
48	O=C1NC(=O)N(Cc2ccc(F)cc2)C(=O)/C1=C\c1ccc([N+](=O)[O-])s1	12.2	10.8	39.8µM*	8.4%	-10.2	?	0.2
49	CCC(=O)N1N=C2C3CCN(CC3)C2C1c1ccccc1 (configuration not stated)	3.4	-5.7	7.8%	?	2.7	0.1	3.7
50	CC1CCCN(CC(=O)N2CCCc3ccccc32)C1 (configuration not stated)	-0.1	-34.8	-9.5%	-1.4%[38.3 µM]	8.0	-0.5	-14.5
51	C=CCN1CC[C@@]2(C)c3cc(O)ccc3CC1[C@@H]2C	6.8	-4.4	-1.5%	1.2%	-4.1	7.8	-17.7
52	Cc1ccc(CN2C3CCCC2CC(NC(=S)NCc2ccccc2)C3)cc1 (configuration not stated)	-1.3	-18.5	-14.2%	?	-10.3	-7.3	-1.7

Screens (PubChem)
